Calb FLC: affects C. albicans growth with fluconazole; 300,000 tested, 0.57% active; growth inhibition, % (no concentration beside the values); C. albicans CaCi-2 (fluconazole-resistant clinical isolate) + fluconazole, Alamar Blue growth, 48 h;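 active = most replicates above 75%; inconclusive = exactly half above 75%; inactive = most below 75%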;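 note: all wells also contain fluconazole at 8 µg/ml as a sub-toxic cotreatment; 0% = median of DMSO wells and 100% = median of geldanamycin control wells; wells of about 8 µL received 7.5 nL stock; the first replicate is given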
T cruzi inh: blocks replication of Trypanosoma cruzi; AID 1885; 300,000 tested, 1.4% active; T. cruzi beta-gal in NIH3T3, luminescence, 90 h; inhibition, % (test concentration not listed);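 active = mean inhibition across valid replicates above about 55%, limit read from the data; inconclusive = mean below that limit but half or more replicates reach it; inactive = mean below it, under half of replicates reach it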;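 note: signal also drops with host cell toxicity which is not excluded here; 0% = plate median of DMSO wells and 100% = zero luminescence signal; higher percent means less beta-gal luminescence so fewer parasites; stock transfer was 50 nL into about 50 µL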
RanGTP-Impb inh: disruptors of Ran-importin-beta complex formation – biochemical, FRET, CFP-Ran, YFP-importin-beta, homogeneous, primary screen; cell-free CFP-Ran/YFP-importin-beta FRET ratio; inhibition, % (concentration not given with the values); 300,000 tested, 1.1% active; AID 2216;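 active = most replicates above 15%; inconclusive = exactly half above 15%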;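 note: 0% = DMSO wells and 100% = Ran loaded with GDP instead of GTP; wells of about 40 µL received 100 nL stock; the first replicate is given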
FGF22 binding: binders of recombinant human FGF22 by thermal shift; 340,000 tested, 1.5% active; SYPRO orange fluorescence; percent of sucrose octasulfate shift, DMSO zero; calls only at 9.99 µM;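 active = melting point raised past a set limit in the mean and every replicate; inconclusive = no clear call; three in four hits are not shown here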
Target sequence (Q9HCT0 whole entry, looked up): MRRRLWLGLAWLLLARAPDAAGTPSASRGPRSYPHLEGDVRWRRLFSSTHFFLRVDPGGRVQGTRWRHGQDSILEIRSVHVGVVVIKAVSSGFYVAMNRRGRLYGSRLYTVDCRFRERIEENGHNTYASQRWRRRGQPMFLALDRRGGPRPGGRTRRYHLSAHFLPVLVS
MLL AF4-AF9 inh: inhibitors of human MLL-AF4/AF9 interaction; P42568; 350,000 tested, 0.47% active; inhibition, % at 10 µM; AlphaScreen, biotin-AF4 peptide binding to FLAG-AF9; AID 651704;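 active = every replicate reaching a set inhibition limit, whatever the replicate mean, cut at about 25% in these data; inconclusive = mean inhibition reaches that limit but some replicates miss it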;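 note: 0% = plate neutral control median and 100% = total signal loss; the record names both 10 and 1 µM as test concentration; the first replicate is given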
Target sequence (P42568 whole entry, looked up): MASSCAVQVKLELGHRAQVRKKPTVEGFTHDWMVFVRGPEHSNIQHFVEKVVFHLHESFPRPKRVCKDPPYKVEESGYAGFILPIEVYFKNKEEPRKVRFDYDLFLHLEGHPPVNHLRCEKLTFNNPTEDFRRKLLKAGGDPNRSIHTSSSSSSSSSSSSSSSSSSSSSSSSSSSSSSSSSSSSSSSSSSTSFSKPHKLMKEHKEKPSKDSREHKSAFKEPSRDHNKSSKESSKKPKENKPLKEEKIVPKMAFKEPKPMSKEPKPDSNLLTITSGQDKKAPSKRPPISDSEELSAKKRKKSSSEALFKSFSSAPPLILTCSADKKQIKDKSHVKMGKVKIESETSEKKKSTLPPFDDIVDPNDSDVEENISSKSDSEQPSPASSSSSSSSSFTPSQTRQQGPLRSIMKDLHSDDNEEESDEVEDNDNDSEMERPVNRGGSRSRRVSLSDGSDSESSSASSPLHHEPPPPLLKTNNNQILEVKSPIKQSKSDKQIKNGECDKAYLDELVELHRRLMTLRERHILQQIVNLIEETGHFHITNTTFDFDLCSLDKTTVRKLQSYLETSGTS
Ecoli rRNA inh: inhibits bacterial ribosomal RNA function over humanized ribosomes; E. coli WT GFP vs humanized-ribosome RFP mutants, fluorescence, 24 h; hits give low values; DMSO median 0, no signal -100; GFP signal change (wild-type ribosome), % (no concentration beside the values); 350,000 tested, 1.6% active;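 active = significant combined selectivity score with lowered wild-type GFP, culture density cut under 30%, mutant RFP and density less affected; inactive = any of these conditions unmet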; note: one replicate is shown; some compounds called inactive have numbers as strong as hits
Beta apoptosis: beta cell apoptosis inhibition; AID 435005; protection from apoptosis, % (concentration not given with the values); INS-1E cytokine-induced death, ATP luminescence, 48 h; percent of positive-control rescue, neutral wells zero; 300,000 tested, 0.8% active;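 active = all replicates at 75% or more, or half of them and the mean; inconclusive = half reach 75% but not the mean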;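 note: 0% = cytokine-treated negative control wells and 100% = positive control rescue; higher means more ATP so stronger rescue from cytokine killing; wells of about 40 µL received 100 nL stock; the first replicate is given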
ALR H2O2 inh: human ALR oxidase inhibition via reduced H2O2; 290,000 tested, 3.8% active; purified ALR, DTT oxidation, H2O2 HRP-luminol luminescence; P55789; inhibition, % (no concentration beside the values);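 active = mean and each replicate at 75% or more; inconclusive = only one of the two met; inactive = neither met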;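 note: stock transfer was 7.5 nL into about 7.5 µL; 0% = neutral wells and 100% = wells with inactivated enzyme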
Target sequence (P55789 whole entry, looked up): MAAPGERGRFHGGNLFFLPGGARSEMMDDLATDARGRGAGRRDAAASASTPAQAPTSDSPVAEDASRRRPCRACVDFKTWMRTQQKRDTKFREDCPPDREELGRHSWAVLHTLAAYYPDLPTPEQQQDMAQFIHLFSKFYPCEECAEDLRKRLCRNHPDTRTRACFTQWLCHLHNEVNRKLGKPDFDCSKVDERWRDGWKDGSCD
Ecoli rRNA inh OD600: further read-out of Ecoli rRNA inh, marked with its call; OD600 change, %; measured here: OD600 growth;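 optical density of the mix in the first replicate; 0 = DMSO median and -100 = no signal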
Ecoli rRNA inh RFP: recorded beside Ecoli rRNA inh, whose call it bears; RFP signal change, %; measured here: RFP humanized mutant strains;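 first replicate; 0 = DMSO median and -100 = no signal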
Active calls of the source: *; i = inactive; u = inconclusive; x = not tested or not shown. A portion of the library; rates above refer to the full screens.

mol,Calb FLC,T cruzi inh,RanGTP-Impb inh,FGF22 binding,MLL AF4-AF9 inh,Ecoli rRNA inh,Ecoli rRNA inh OD600,Ecoli rRNA inh RFP,Beta apoptosis,ALR H2O2 inh
CCC(C(=O)NC(C)(C)C)N(Cc1cccs1)C(=O)CNS(=O)(=O)c1ccccc1 (centres undefined),-1,2,1.3,i,5.3,13,20,4.4,-9,-3
COc1ccc(NC(=O)CCOc2ccccc2F)cc1S(=O)(=O)N1CCCCC1,x,x,x,i,2.9,-7,-16,-1.9,0,-5
Nc1nonc1C(=O)N/N=C/c1cc2c(cc1[N+](=O)[O-])OCO2,23,-9,0.1,i,-0.4,8,14,-1.3,-2,-16
CN(CCC#N)C(=O)CC1(Cc2ccccc2)CCOC(C)(C)C1 (centres undefined),3,-5,-4.3,i,-2.2,1,2,0.5,-2,-3
CC1CCN(C(=O)COC(=O)c2ccc(N3CCCC3=O)cc2)CC1,x,x,x,i,-0.2,x,x,x,-3,-2
Cc1n[nH]c(=O)c2c(NC(=O)CSc3nncs3)oc(C)c12,0,-1,3.4,i,7.6,5,0,-2.1,x,14
Cc1c(Cl)cccc1NC(=S)NCCc1ccc(F)cc1,-12,-6,2.9,i,3.2,-46,-74,-5.5,0,1
CCC[C@@H]1CCCO[C@@](C(=O)NCc2ccccn2)(C(F)(F)F)C1,2,-11,0.6,i,-1.2,-27,-36,2.4,-6,-14
COCCN(CC1CCCN(C2Cc3ccccc3C2)C1)C(=O)c1cccc(C)c1 (centres undefined),-23,49,0.8,i,1.7,6,8,-4.0,-3,-2
COc1ccc(C(CC(=O)Nc2nccs2)n2cccc2)cc1 (centres undefined),-6,-3,4.2,x,x,x,x,x,-4,3
O=C(NC(O)C(=O)c1cccs1)c1cccnc1 (centres undefined),-6,-13,4.4,x,x,x,x,x,-4,0
CC(C)COc1cccc(C(=O)N(C)CC(=O)Nc2cccc3ccccc23)c1,x,x,x,i,-1.8,-30,-62,13,-1,0
O=S(=O)(NCC(c1ccco1)N1CCc2ccccc21)c1ccccc1 (centres undefined),1,9,3.8,x,8.8,-35,-58,6.1,2,97*
COc1ccccc1CCNC(=O)C(=O)NCC1OCCN1S(=O)(=O)c1ccccc1 (centres undefined),8,11,-3.4,i,-4.4,-7,-15,-12,-4,x
Nc1c(C(=O)NC2CCCC2)c2nc3ccccc3nc2n1/N=C/c1ccco1,6,4,26*,x,x,x,x,x,-8,30
CCOC(=O)C1CCCN(S(=O)(=O)c2cc3[nH]c(=O)c(=O)[nH]c3cc2C)C1 (centres undefined),-3,-7,u,i,-5.0,17,17,4.4,-1,-38
COc1ccc(CCn2nnnc2CN2CCN(C(=O)c3ccco3)CC2)cc1OC,1,5,-0.7,i,-1.7,3,5,2.3,-6,17
NNC(=O)C(Cc1c[nH]c2ccccc12)NC(=O)c1ccccc1 (centres undefined),-5,-3,1.4,i,-0.2,-1,1,-2.5,2,25
O=C(C1CCCN(Cc2ccc3c(c2)OCO3)C1)N1CCCC1 (centres undefined),-5,47,7.6,x,x,x,x,x,1,-2
Cc1ccc(S(=O)(=O)N2CCCN(C(=O)CNC(=O)c3cccc(C)c3)CC2)cc1,x,x,x,i,1.2,-1,-5,-1.9,-1,-2
O=C(NNc1ccccc1)C(CCO)C(=O)NNc1ccccc1,100*,3,u,i,1.1,19,21,3.0,-5,98*
CC(C)C1COS(=O)(=O)NC1CC(=O)SC(C)(C)C (centres undefined),-7,-2,2.9,i,0.1,6,0,1.6,-4,-18
Cc1ccc(S(=O)(=O)n2nc(C)c(C#N)c2N)cc1,-1,0,-1.0,i,-3.0,21,13,-2.0,2,-7
CCOC(=O)C1CCN(C(c2ccccn2)c2c(C)[nH]c3ccccc23)CC1 (centres undefined),0,-5,u,x,x,x,x,x,-11,54
Cc1ccc2c(c1)-n1c(nc3cc(F)ccc3c1=O)C(Cc1ccc(O)cc1)NC2=O (centres undefined),x,x,x,i,2.1,-5,-11,13,0,13
Cc1cc(NC2C3CC4CC(C3)CC2C4)n2nnnc2n1 (centres undefined),-31,-7,7.5,x,x,x,x,x,-1,-5
CC(NC(=O)c1ccc(F)cc1)c1nc2ccccc2n1Cc1ccccc1F (centres undefined),-10,1,-1.5,i,1.8,9,0,-2.0,-4,-1
Cc1ccccc1CC1(CO)CCCN(Cc2nc(-c3cccs3)oc2C)C1 (centres undefined),21,29,0.5,i,8.6,-25*,-20*,6.5*,1,-4
COc1ccccc1NC(=O)Cn1cncc1-c1ccc([N+](=O)[O-])cc1,4,5,2.7,x,x,x,x,x,0,-4
Cc1ccc(OCc2nnc(N)s2)cc1C,2,-7,-4.8,i,-0.2,-6,1,-2.4,x,-10
COC(=O)Cc1c(O)ccn(Cc2cccc3ccccc23)c1=O,-6,-5,-0.9,x,x,x,x,x,-10,8
O=C(NCc1ccccc1Cl)C(=O)c1c[nH]c2ccccc12,-5,16,2.0,x,x,x,x,x,-1,31
Nc1ccnc(C(F)(F)F)c1C(=O)c1ccccc1,6,-9,0.8,x,x,x,x,x,4,2
O=Cc1c(NCCN2CCOCC2)c2ccccc2[nH]c1=O,1,-13,4.5,i,0.2,15,5,2.1,-3,x
CCn1c(SCC(=O)Nc2ccc3[nH]c(=O)[nH]c3c2)nnc1-c1ccccc1,-1,-9,-3.6,i,u,2,7,2.0,-4,-8
Cc1cccc(NC(=O)CSc2nc(C)c(Cc3ccccc3)c(=O)[nH]2)c1C,-15,-14,-2.3,x,x,x,x,x,-3,-1
O=C(O)c1ccc(S(=O)(=O)c2ccc3c(c2)C(=O)N(c2ccc(O)cc2)C3=O)cc1,3,-6,0.8,i,-52,-36*,-29*,8.3*,-5,x
O=C(CN(Cc1ccccc1)C(=O)c1ccco1)NCc1ccc(F)cc1,-2,16,0.6,x,x,x,x,x,-8,-21
COc1ccc(NC(=O)C(=O)N/N=C/c2cc(C)n(-c3cccc(Cl)c3Cl)c2C)c(OC)c1,26,6,3.8,x,x,x,x,x,0,-4
CCOC(=O)c1cc(NC(=O)N(C(C)C)C2CCCCC2)c(C)nc1C,-1,1,-4.5,i,-5.2,6,4,0.2,-5,-69
CCCCSCCCNC(=O)c1ccc2c(c1)N(CC)C(=O)c1ccccc1S2=O (centres undefined),-7,5,2.1,i,3.7,-6,-25,-1.9,-2,1
CCOc1ccc2c(C)nc(NC3=NC(C)(C)C=C(C)N3)nc2c1,-2,37,-0.7,x,x,x,x,x,-1,-10
Cc1ccc(/C=C2\SC(=S)N(c3cccnc3)C2=O)cc1,0,-3,-4.6,x,0.0,18,9,-1.1,-3,-9
CCN(CC)CCCNC(=O)c1cc(Cl)c(NC(=O)C2=C(C)OCCS2)cc1OC,-6,4,-0.8,i,6.8,6,4,0.1,-3,-4
COC(=O)c1ccc(NC(=O)CN(c2ccc3c(c2)OCO3)S(C)(=O)=O)cc1,3,7,-0.9,x,x,x,x,x,-4,-12
Cc1ccc(C)c(NS(=O)(=O)c2cc(C(=O)NCCSC3CCCCC3)ccc2C)c1,6,28,-2.0,i,-0.1,2,-12,7.4,38,0
COc1cc(/C=C/C(=O)O)cc(S(=O)(=O)Nc2ccc3c(c2)OCO3)c1OC,16,-15,1.4,i,0.3,1,-7,-6.1,1,-78
Cc1nn(-c2ccccc2)c(C)c1NC(=O)COc1ccc([N+](=O)[O-])cc1,2,-5,1.0,i,-50,1,1,-2.5,-1,-5
C=CCN(c1ccccc1)S(=O)(=O)c1cccc(C(=O)NC2CCC(O)CC2)c1 (centres undefined),-4,-5,-1.5,i,-0.2,-8,-10,1.7,x,0
N=C1C(=O)OCC1c1ccccc1NC(=O)c1ccc(F)cc1 (centres undefined),0,-6,10,x,x,x,x,x,-3,2
CN1CCN(CC(=O)Nc2ccc(Cl)cc2Cl)CC1,-2,31,2.8,i,0.4,7,8,-5.9,1,-6
CC1CCCCN1Cc1c(O)ccc2c(=O)c(-c3ccc(Br)cc3)coc12 (centres undefined),14,10,0.8,i,-0.4,-1,-5,1.1,x,x
O=C(Nc1cccc([N+](=O)[O-])c1)C1CC(=O)N(C2CCCCC2)C1 (centres undefined),0,0,1.9,i,0.1,3,7,-1.1,-4,-11
CC(OC(=O)C1CCN(c2ccc(C(F)(F)F)cn2)CC1)C(=O)Nc1ccc(S(N)(=O)=O)cc1 (centres undefined),0,3,0.5,i,-1.2,-1,-7,6.7,-5,-5
O=C(O)CCCNC(=O)CCCNC(=O)C(c1ccccc1)c1ccccc1,-3,-11,-1.3,i,-1.7,7,4,-0.7,x,-10
O=C(/C=C/c1ccccc1Cl)c1ccccc(=O)c1O,7,58*,2.3,x,x,x,x,x,60,13
CSc1ccccc1C(=O)NC1CCCN(Cc2ccccc2F)C1 (centres undefined),-3,14,2.6,i,2.1,2,4,1.1,-5,x
O=S(=O)(c1ccc(-n2cnnn2)cc1)N1CCNCC1,6,-7,-1.1,i,0.2,14,19,1.8,-4,-5
O=C(CN1C(=O)NC2(CCCc3ccccc32)C1=O)NCc1ccc(Cl)cc1Cl (centres undefined),-3,-4,-2.7,i,1.0,-12,-25,3.4,0,5
CCOc1ccc(C(=O)CCC(=O)Nc2ccccc2C)cc1,1,4,u,i,-4.9,5,1,-1.4,x,-10

Continuation.
mol,Calb FLC,T cruzi inh,RanGTP-Impb inh,FGF22 binding,MLL AF4-AF9 inh,Ecoli rRNA inh,Ecoli rRNA inh OD600,Ecoli rRNA inh RFP,Beta apoptosis,ALR H2O2 inh
CCCCn1c(N)c(N(CCC(C)C)C(=O)C2CC(=O)N(CCc3ccc(OC)c(OC)c3)C2)c(=O)[nH]c1=O (centres undefined),-3,-4,0.6,i,-9.0,8,21,0.3,-1,-3
CC(C(=O)N(C)Cc1ccccc1)N1CCN(C/C=C/c2ccccc2)CC1 (centres undefined),-15,60*,0.9,i,1.8,4,4,-3.0,-4,0
CC1CC(NS(=O)(=O)c2cc3c4c(c2)CCN4C(=O)CC3)CC(C)(C)C1 (centres undefined),1,7,u,i,0.8,-5,-9,-0.1,-8,-4
Cc1ccc(Nc2c(F)c(F)c(F)c(F)c2C(=O)O)cc1,12,5,-3.1,i,1.6,-36,-33,-7.0,-7,87*
CN(C)CCCN(C(=O)C1=COCCO1)c1nc2ccc(Br)cc2s1,-1,34,-0.8,i,7.0,-15,-11,6.1,-8,-1
COC(=O)c1sc(N)c(C(=O)OC)c1CSc1nnc(-c2ccccc2Cl)n1C,26,14,-3.5,x,x,x,x,x,4,-4
